A1 apoptosis 2: A1 inhibitors via caspase activation, primary screen, cell-based, luminescence, HTS, two replicates | MEF A1-2A-BIM cells, caspase-Glo luminescence, 3 h; percent of clofoctol response, DMSO zero | caspase activation, % (test concentration not listed) | 24,000 tested, under 10 active | AID 2465, 2010; in the data active = caspase activation above about 5.9%;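 note: wells of about 30 µL received 50 nL stock; the first replicate is given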
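Test system – A1-2A-BIM-expressing MEF cells · Input – 2500 cells/well · Medium – RPMI-1640 growth medium with 10% FBS · Compound dosing – 50 nL pinned compound · Timing – 3 h compound exposure at 37 °C · Technique – Caspase-Glo luminescence (DEVD substrate) · Evaluation – Caspase-3/7 activity from luminescence increase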
The depositor's hits bear a star. Not all compounds are listed; count on the stated rates, not on these rows.

SMILES	A1 apoptosis 2
COc1ccc(S(=O)(=O)Nc2cccc3c2O[C@@H](CN(C)S(=O)(=O)c2ccc(Cl)cc2)[C@H](C)CN([C@@H](C)CO)C3=O)cc1	-1.1
C[C@@H]1CCCCO[C@@H](CN(C)CC2CCCCC2)[C@H](C)CN([C@H](C)CO)C(=O)c2cc(NC(=O)Nc3cccc4ccccc34)ccc2O1	2.1
C[C@H]1CN([C@@H](C)CO)C(=O)c2cc(NC(=O)Nc3ccc(C(F)(F)F)cc3)ccc2O[C@@H]1CN(C)S(=O)(=O)c1ccc(Cl)cc1	0.0
COc1ccc(S(=O)(=O)Nc2ccc3c(c2)CC(=O)N([C@@H](C)CO)C[C@H](C)[C@H](CN(C)C(=O)NC(C)C)O3)cc1	0.3
C[C@@H]1CN([C@H](C)CO)C(=O)c2cc(NC(=O)Cc3ccccc3)ccc2O[C@@H]1CN(C)S(=O)(=O)c1ccc(F)cc1	0.9
C[C@H]1CN([C@@H](C)CO)C(=O)CCCn2cc(nn2)CO[C@H]1CN(C)Cc1cccnc1	0.5
COc1ccc(NC(=O)Nc2ccc3c(c2)C(=O)N([C@@H](C)CO)C[C@@H](C)[C@H](CN(C)C(=O)Nc2ccc(F)cc2)O3)cc1	1.3
C[C@H](CO)N1C[C@H](C)[C@@H](CN(C)C(=O)Nc2ccc(F)cc2)Oc2ccc(NC(=O)C3CC3)cc2C1=O	0.6
COc1ccc(NC(=O)Nc2cccc3c2O[C@@H](CN(C)Cc2ccc(C(=O)O)cc2)[C@H](C)CN([C@@H](C)CO)C3=O)cc1	0.3
Cc1noc(C)c1S(=O)(=O)Nc1ccc2c(c1)C(=O)N([C@@H](C)CO)C[C@H](C)[C@H](CN(C)C(=O)c1ccncc1)OCCCC[C@@H](C)O2	-0.2
C[C@@H]1CCCCO[C@H](CN(C)C(=O)Cc2ccccc2)[C@H](C)CN([C@@H](C)CO)C(=O)c2cc(NC(=O)CCCN(C)C)ccc2O1	0.8
Cc1ccc(S(=O)(=O)Nc2cccc3c2O[C@@H](CN(C)Cc2ccncc2)[C@@H](C)CN([C@@H](C)CO)C3=O)cc1	0.8
C=CCOC(=O)C1=C[C@@H](c2ccc(C(F)(F)F)cc2)[C@H](CCCO)[C@@H](OCC)O1	0.3
Cc1noc(C)c1NC(=O)N(C)C[C@H]1Oc2ccc(NC(=O)Cc3cn(C)c4ccccc34)cc2CC(=O)N([C@@H](C)CO)C[C@@H]1C	0.2
C[C@H]1CN([C@@H](C)CO)C(=O)c2cccc(NC(=O)c3cnccn3)c2O[C@H]1CN(C)Cc1ccc(Oc2ccccc2)cc1	0.5
Cc1noc(C)c1NC(=O)N(C)C[C@H]1Oc2ccc(NC(=O)NC3CCCCC3)cc2C(=O)N([C@@H](C)CO)C[C@@H]1C	-1.0
C[C@H](CO)N1C[C@H](C)[C@H](CN(C)CC2CC2)Oc2ccc(NC(=O)Cc3ccccc3)cc2CC1=O	0.4
C[C@@H]1CN([C@H](C)CO)C(=O)c2cccc(NS(=O)(=O)c3cn(C)cn3)c2O[C@@H]1CN(C)S(=O)(=O)c1ccc(Cl)cc1	-0.7
C[C@H](CO)N1C[C@H](C)[C@@H](CN(C)Cc2ccc3cccnc3c2)OCc2cnnn2CCCC1=O	0.4
C[C@H]1CN([C@@H](C)CO)C(=O)Cc2cc(NC(=O)Nc3ccc4c(c3)OCO4)ccc2O[C@H]1CN(C)CC1CC1	-0.6
O=C(C1=C[C@H](c2coc3ccccc3c2=O)C[C@H](OCCCCO)O1)N1CCN(Cc2ccc3c(c2)OCO3)CC1	0.5
CC(C)NC(=O)N(C)C[C@@H]1OCCCC[C@H](C)Oc2ccc(NC(=O)c3ccncc3)cc2C(=O)N([C@@H](C)CO)C[C@H]1C	-0.5
C[C@@H]1CN([C@H](C)CO)C(=O)c2cc(NC(=O)Cc3ccccc3)ccc2O[C@@H](C)CCCCO[C@H]1CN(C)Cc1ccccc1	-2.0
COc1ccc(NC(=O)N(C)C[C@H]2OCc3cnnn3CCCC(=O)N([C@@H](C)CO)C[C@H]2C)c(OC)c1	1.7
COc1ccc(NC(=O)Nc2ccc3c(c2)C(=O)N([C@H](C)CO)C[C@@H](C)[C@@H](CN(C)C(=O)CCCN(C)C)OCCCC[C@@H](C)O3)cc1	0.2
COc1ccc(S(=O)(=O)N(C)C[C@@H]2OCCCC[C@@H](C)Oc3ccc(NS(=O)(=O)c4ccccc4)cc3C(=O)N([C@H](C)CO)C[C@H]2C)cc1	1.7
COc1ccc(NC(=O)N(C)C[C@@H]2OCCCC[C@H](C)Oc3ccc(NS(=O)(=O)c4ccccc4)cc3C(=O)N([C@H](C)CO)C[C@H]2C)cc1	1.2
CNC[C@@H]1Oc2c(NC(=O)C3CCCCC3)cccc2C(=O)N([C@@H](C)CO)C[C@H]1C	-1.0
C[C@@H]1CN([C@H](C)CO)C(=O)Cc2cc(NC(=O)c3ccncc3)ccc2O[C@H]1CN(C)S(=O)(=O)c1ccccc1	-1.4
CC(C)NC(=O)N(C)C[C@H]1Oc2ccc(N(C)C)cc2C(=O)N([C@@H](C)CO)C[C@H]1C	1.4
C[C@H](CO)N1C[C@H](C)[C@@H](CN(C)Cc2ccc(Cl)c(Cl)c2)Oc2ccc(NC(=O)NC3CCCCC3)cc2C1=O	-1.1
CC(C)NC(=O)N(C)C[C@@H]1Oc2ccc(NS(=O)(=O)c3cccs3)cc2C(=O)N([C@@H](C)CO)C[C@@H]1C	0.9
COc1ccc(S(=O)(=O)N(C)C[C@H]2Oc3ccc(N(C)C)cc3C(=O)N([C@@H](C)CO)C[C@H]2C)cc1	-0.2
CNC[C@@H]1OCCCC[C@@H](C)Oc2ccc(NC(=O)Nc3cccc4ccccc34)cc2C(=O)N([C@@H](C)CO)C[C@H]1C	0.9
C[C@H]1CN([C@@H](C)CO)C(=O)c2cccc(NC(=O)Nc3ccc(C(F)(F)F)cc3)c2O[C@H]1CN(C)S(C)(=O)=O	1.0
N#Cc1ccc(/C=N/NC(=O)CCCCCCC(=O)O)cc1	0.9
C[C@H]1CCCCO[C@H](CN(C)Cc2ccc(Cl)c(Cl)c2)[C@@H](C)CN([C@@H](C)CO)C(=O)c2cc(NS(=O)(=O)c3ccc(F)cc3)ccc2O1	-1.5
C[C@H](CO)N1C[C@H](C)[C@H](CN(C)Cc2ccc(-c3ccccc3)cc2)Oc2ccc(NC(=O)Nc3ccccc3)cc2C1=O	-2.7
C[C@@H]1CN([C@@H](C)CO)C(=O)c2cccc(NC(=O)C3CCCCC3)c2O[C@H]1CN(C)Cc1ccccc1	-1.1
COc1ccc(NC(=O)N(C)C[C@@H]2Oc3c(NC(=O)Nc4ccc(F)cc4)cccc3C(=O)N([C@H](C)CO)C[C@@H]2C)cc1	0.0
C[C@@H]1CN([C@@H](C)CO)C(=O)c2cc(NC(=O)CCC(F)(F)F)ccc2O[C@@H](C)CCCCO[C@H]1CN(C)S(=O)(=O)c1ccc(Cl)cc1	-0.6
C[C@@H]1CN([C@H](C)CO)C(=O)Cc2cc(NC(=O)CCCCCC(=O)Nc3ccccc3N)ccc2O[C@@H]1CN(C)Cc1ccc2c(c1)OCO2	-0.5
C[C@H](CO)N1C[C@H](C)[C@@H](CN(C)S(=O)(=O)c2cn(C)cn2)Oc2ccc(NC(=O)C3CC3)cc2C1=O	0.3
C[C@@H]1CCCCO[C@@H](CN(C)CC2CCCCC2)[C@H](C)CN([C@H](C)CO)C(=O)c2cc(NC(=O)Cc3ccccc3)ccc2O1	0.3
COc1cccc(-c2cnc3c(c2)C(=O)N([C@H](C)CO)C[C@H](C)[C@H](CN(C)C(=O)NC2CCCCC2)O3)c1	-1.1
Cc1ccc(S(=O)(=O)N(C)C[C@@H]2OCCCC[C@@H](C)Oc3ccc(NS(=O)(=O)c4c(C)noc4C)cc3C(=O)N([C@@H](C)CO)C[C@H]2C)cc1	0.0
Cc1ccc(S(=O)(=O)Nc2cccc3c2O[C@@H](CN(C)CC2CCCCC2)[C@@H](C)CN([C@H](C)CO)C3=O)cc1	0.5
CNC[C@H]1OCCCC[C@H](C)Oc2ccc(NC(=O)NC(C)C)cc2C(=O)N([C@@H](C)CO)C[C@@H]1C	-0.5
C[C@H](CO)N1C[C@H](C)[C@H](CN(C)C(=O)Nc2ccc(C(F)(F)F)cc2)Oc2ccc(NC(=O)Nc3ccccc3)cc2CC1=O	0.1
C[C@@H]1CN([C@H](C)CO)C(=O)c2cc(NS(=O)(=O)c3ccc(Cl)cc3)ccc2O[C@H]1CN(C)Cc1ccc2c(c1)OCO2	2.4
C[C@@H]1CCCCO[C@@H](CN(C)Cc2ccc(C(=O)O)cc2)[C@H](C)CN([C@@H](C)CO)C(=O)c2cc(NC(=O)C3CCCCC3)ccc2O1	1.0
COc1ccc(NC(=O)C(OC(=O)c2ccccc2)c2cccs2)cc1 (configuration not stated)	-5.7
C[C@@H]1CN([C@H](C)CO)C(=O)c2cc(NS(=O)(=O)c3cccs3)ccc2O[C@@H](C)CCCCO[C@H]1CN(C)S(=O)(=O)c1cccs1	-0.6
C=CCOC(=O)C1=C[C@H](c2coc3ccccc3c2=O)C[C@H](OCCCCO)O1	0.7
C[C@@H]1CN([C@H](C)CO)C(=O)c2cc(NC(=O)C3CCCCC3)ccc2O[C@@H](C)CCCCO[C@H]1CN(C)Cc1ccncc1	0.5
C[C@@H]1CN([C@@H](C)CO)C(=O)c2cccc(NC(=O)C3CC3)c2O[C@@H]1CN(C)CC1CC1	0.4
Cc1ccc(S(=O)(=O)Nc2ccc3c(c2)C(=O)N([C@@H](C)CO)C[C@@H](C)[C@@H](CN(C)S(=O)(=O)c2c(C)noc2C)OCCCC[C@@H](C)O3)cc1	0.5
C[C@@H]1CN([C@H](C)CO)C(=O)Cc2cc(NC(=O)Cc3cn(C)c4ccccc34)ccc2O[C@H]1CN(C)C(=O)Nc1ccc(C(F)(F)F)cc1	-0.9
C[C@H](CO)N1C[C@H](C)[C@H](CN(C)C(=O)Nc2ccccc2)Oc2ccc(NC(=O)CCC(F)(F)F)cc2C1=O	0.3
C[C@H]1CN([C@@H](C)CO)C(=O)c2cccc(NS(C)(=O)=O)c2O[C@H]1CN(C)S(=O)(=O)c1cccs1	0.0

Molecules above with a CF3 group:
SMILES	A1 apoptosis 2
C[C@H]1CN([C@@H](C)CO)C(=O)c2cc(NC(=O)Nc3ccc(C(F)(F)F)cc3)ccc2O[C@@H]1CN(C)S(=O)(=O)c1ccc(Cl)cc1	0.0
C=CCOC(=O)C1=C[C@@H](c2ccc(C(F)(F)F)cc2)[C@H](CCCO)[C@@H](OCC)O1	0.3
C[C@H]1CN([C@@H](C)CO)C(=O)c2cccc(NC(=O)Nc3ccc(C(F)(F)F)cc3)c2O[C@H]1CN(C)S(C)(=O)=O	1.0
C[C@@H]1CN([C@@H](C)CO)C(=O)c2cc(NC(=O)CCC(F)(F)F)ccc2O[C@@H](C)CCCCO[C@H]1CN(C)S(=O)(=O)c1ccc(Cl)cc1	-0.6
C[C@H](CO)N1C[C@H](C)[C@H](CN(C)C(=O)Nc2ccc(C(F)(F)F)cc2)Oc2ccc(NC(=O)Nc3ccccc3)cc2CC1=O	0.1
C[C@@H]1CN([C@H](C)CO)C(=O)Cc2cc(NC(=O)Cc3cn(C)c4ccccc34)ccc2O[C@H]1CN(C)C(=O)Nc1ccc(C(F)(F)F)cc1	-0.9
C[C@H](CO)N1C[C@H](C)[C@H](CN(C)C(=O)Nc2ccccc2)Oc2ccc(NC(=O)CCC(F)(F)F)cc2C1=O	0.3

Later entries.
SMILES	A1 apoptosis 2
C[C@H](CO)N1C[C@H](C)[C@@H](CN(C)C(=O)Nc2ccccc2)Oc2ccc(N(C)C)cc2C1=O	-0.7
COc1ccc([C@H]2C[C@H]3C(Br)=CC2C(=O)[C@]32CO2)cc1OC	0.2
C[C@H](CO)N1C[C@H](C)[C@@H](CN(C)CC2CC2)Oc2ccc(NS(C)(=O)=O)cc2CC1=O	0.6
C[C@@H]1CCCCO[C@H](CN(C)Cc2ccc(C(=O)Nc3ccccc3N)cc2)[C@@H](C)CN([C@H](C)CO)C(=O)c2cc(NS(C)(=O)=O)ccc2O1	-0.5
Cc1noc(C)c1S(=O)(=O)Nc1ccc2c(c1)CC(=O)N([C@H](C)CO)C[C@@H](C)[C@@H](CN(C)S(=O)(=O)c1ccc(Cl)cc1)O2	-1.3
C[C@H](CO)N1C[C@H](C)[C@@H](CN(C)C(=O)NC2CCCCC2)Oc2ccc(NC(=O)C3CCCCC3)cc2C1=O	-0.4
C[C@H](CO)N1C[C@H](C)[C@@H](CN(C)Cc2ccc(C(F)(F)F)cc2)OCCCC[C@H](C)Oc2ccc(N(C)C)cc2C1=O	0.5
COc1ccc(NC(=O)N(C)C[C@H]2Oc3ccc(NC(=O)CCC(F)(F)F)cc3CC(=O)N([C@@H](C)CO)C[C@@H]2C)cc1	0.5
C[C@H](CO)N1C[C@H](C)[C@H](CN(C)C(=O)Nc2ccc3c(c2)OCO3)OCCCC[C@H](C)Oc2ccc(NC(=O)c3ccccc3)cc2C1=O	0.6
C[C@@H]1CN([C@@H](C)CO)C(=O)Cc2cc(NS(=O)(=O)c3cn(C)cn3)ccc2O[C@@H]1CN(C)C(=O)Nc1ccc(C(F)(F)F)cc1	-0.3
COc1ccc(CN(C)C[C@H]2OCCCC[C@H](C)Oc3ccc(NC(=O)Nc4ccc(F)cc4)cc3C(=O)N([C@H](C)CO)C[C@H]2C)cc1	-0.4
O=C(CCCCCCC(=O)Nc1ccccc1O)N/N=C/c1cccc(OCCO)c1	-1.2
